RE007 growth inh – less growth of the S. pombe RE007 Vpr strain; S. pombe RE007 Vpr strain, BacTiter-Glo ATP luminescence, 24 h; control for the full effect not named in the record; Potency, µM (top dose mostly 92.2 µM), for inactives: at the top dose activity change, negative = less growth; 360,000 compounds, 0.21% hits; AID 651644; active = well fitted falling curve with a large enough effect; inconclusive = small, poorly fitted or top-dose-only effect; inactive = no such curve, though single readings can be large or run the other way;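 further: on the % scale 0 is the no-effect control and ±100 the full control effect; nearly all actives have a fitted effect of over 50% in size; the assay follows cell death caused by Vpr and the record does not say whether a fall means rescue or toxicity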
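Fission yeast strain RE007, carrying one chromosomally integrated HIV-1 vpr copy, was seeded at OD 0.01 in PMG+AL medium with 23 nL pinned compound. After 24 h at 30 °C and 99% humidity, viability was read by BacTiter-Glo luminescence.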
NS1 function inh – blocks influenza NS1 protein function. S. cerevisiae slowed by influenza A NS1, growth recovery by OD600. Potency, µM (doses to about 46.1 µM), for inactives: top-dose activity, positive = more growth. 270,000 compounds, 0.4% hits. AID 2326; further: actives are rising curves; nearly all actives have a fitted effect of over 50% in size
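Compounds were scored for reversing the slow growth caused by influenza A NS1 in S. cerevisiae, measured by optical density at 600 nm. Assay medium contained 2% galactose at pH 6.0; NS1-free yeast of the same strain were the positive control.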
Cruzain Triton – blocks cruzain activity in presence of Triton detergent | P25779 | purified cruzain, Z-FR-AMC fluorescence, 0.01% Triton | Potency, µM, without a hit: max response, negative = inhibition, usual class: inhibitors | 200,000 compounds, 0.43% hits; active means well fitted curve in the direction sought with a large enough effect; inconclusive means small, poorly fitted or top-dose-only effect, or another doubt; inactive means no such curve, though single readings can be large; an effect the other way counts as inactive or inconclusive;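 further: plate controls were neutral wells for no effect and buffer without enzyme for full effect; nearly all actives have a fitted effect of over 40% in size; top concentration of the series not given in the record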
Target sequence (P25779 123-467 limits assumed): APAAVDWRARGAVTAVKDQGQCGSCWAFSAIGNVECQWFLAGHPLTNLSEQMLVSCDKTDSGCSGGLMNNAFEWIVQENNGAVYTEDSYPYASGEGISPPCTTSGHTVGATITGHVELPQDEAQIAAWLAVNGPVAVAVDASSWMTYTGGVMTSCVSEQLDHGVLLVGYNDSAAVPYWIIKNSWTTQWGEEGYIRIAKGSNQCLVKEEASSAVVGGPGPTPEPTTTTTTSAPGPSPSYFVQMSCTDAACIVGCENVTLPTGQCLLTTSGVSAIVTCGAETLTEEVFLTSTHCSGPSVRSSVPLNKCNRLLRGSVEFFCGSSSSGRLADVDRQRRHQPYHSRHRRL
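Detergent-containing run (0.01% Triton X-100) in acetate buffer pH 5.5 with 5 mM DTT: enzyme at 1.5 nM final, 15 min compound preincubation at room temperature, then 2 uM Z-FR-AMC substrate. Activity taken as 60 s fluorescence increase at 360/450 nm.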
StopGo reporter – lowers the luciferase signal of an FMDV 2A StopGo reporter. human cells with a luciferase reporter of 2A StopGo recoding; control for the full effect not named in the record. Potency, µM (highest dose often 57.9 µM), for the others: top-dose signal change, negative = less light. AID 1159524. 410,000 compounds, 1.2% hits; active = well fitted falling curve with a large enough effect; inconclusive = small, poorly fitted or top-dose-only effect; inactive = no such curve, though single readings can be large or run the other way; tested in HEK293T cells; further: on the % scale 0 is the no-effect control and ±100 the full control effect; nearly all actives have a fitted effect of over 45% in size; luciferase light after 4 h
Cruzain noTriton – blocks cruzain activity in detergent-free assay | P25779 | purified cruzain, Z-FR-AMC fluorescence, no detergent | Potency, µM, for inactives: max response, negative = inhibition, usual class: inhibitors | 200,000 compounds, 2.3% hits | AID 1476; active means well fitted curve in the direction sought with a large enough effect; inconclusive means small, poorly fitted or top-dose-only effect, or another doubt; inactive means no such curve, though single readings can be large; an effect the other way counts as inactive or inconclusive;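 further: plate controls were enzyme without inhibitor for no effect and buffer without enzyme for full effect; nearly all actives have a fitted effect of over 40% in size; top concentration of the series not given in the record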
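Detergent-free condition (0.00005% Triton X-100) in acetate buffer pH 5.5 with DTT. 1.5 nM enzyme and compound were pre-mixed 15 min, then 2 uM Z-FR-AMC substrate added; reaction progress from fluorescence change between first and third reads (60 s).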
SARS PLpro yeast – blocks SARS-CoV papain-like protease in a yeast assay; S. cerevisiae expressing SARS-CoV PLpro, growth rescue; control for the full effect not named in the record; 330,000 compounds, 0.19% hits; AID 485353; Potency, µM (top dose mostly 32.9 µM), for the others: at the highest dose activity, positive = growth rescue; further: 0% is about no effect; nearly all actives have a fitted effect of over 55% in size; growth read by luminescence after 48 h
Marburg entry inh – inhibitors of Marburg virus binding or cell entry; Marburg virus pseudotyped entry inhibition, cell reporter; control for the full effect not named in the record; about a third of the inactives were read at about 46 µM; Potency, µM (titrated, usually from 37.8 µM), without a hit: at the top dose activity change, negative = inhibition, most hits filed as inhibitors; 300,000 compounds, 1.8% hits; AID 540276; active = well fitted inhibition curve with a large enough effect; inconclusive = small, poorly fitted or top-dose-only effect, or effect the other way; inactive = flat fitted curve, though single readings scatter; tested in HEK293 cells; about a fifth of its hits are not listed in these tables; further: on the % scale 0 is the no-effect control and ±100 the full control effect; luciferase read-out
LASV entry inh – Lassa virus entry inhibition | Potency, µM (series often up to 37.9 µM), for inactives: at the top dose activity change, negative = inhibition, actives largely listed as inhibitors | Lassa virus pseudotype entry inhibition, cell reporter; control for the full effect not named in the record | 300,000 compounds, 1.2% hits; active means well fitted inhibition curve with a large enough effect; inconclusive means small, poorly fitted or top-dose-only effect, or effect the other way; inactive means flat fitted curve, though single readings scatter; tested in HEK293 cells; further: on the % scale 0 is the no-effect control and ±100 the full control effect; nearly all actives have a fitted effect of over 50% in size; luciferase read-out
An asterisk follows results filed as active; & = joins results of further samples; [ ] = another dose, or the depositor's remark. Unless noted, the call rests on the fitted dose curve; in most records, active means well fitted rising curve with a large enough effect; inconclusive means small, poorly fitted or top-dose-only effect; inactive means no such curve, though single readings can be large or run the other way. Potency means the concentration at half of the fitted maximal effect.

For CSc1ccc(CCNC(=O)C2CCCN(S(=O)(=O)N3CCOCC3)C2)cc1 (stereo unspecified) the results were RE007 growth inh 0%, NS1 function inh -9%, StopGo reporter 0% and SARS PLpro yeast 0%.
Nc1nccnc1C(=O)N/N=C/c1ccco1 was read as RE007 growth inh -1%, NS1 function inh -1%, StopGo reporter 57%[activator] and SARS PLpro yeast -5%.
`COc1ccccc1CNc1ccc(-c2nc(-c3cccc(C)c3)no2)cc1[N+](=O)[O-]` gave Cruzain Triton -7.4%, StopGo reporter -7%, Cruzain noTriton 4%, Marburg entry inh 5%[46.1 µM] and LASV entry inh 21%[46.1 µM].
COc1cc(/C=C(/C#N)c2nc3ccccc3c(=O)[nH]2)ccc1O was read as RE007 growth inh 5%, NS1 function inh -1%, Cruzain Triton -3.3%, StopGo reporter 0%, Cruzain noTriton -1%, SARS PLpro yeast 6%, Marburg entry inh 28% and LASV entry inh -2%.
For COc1ccc(NC(=O)c2cc(-c3ccccc3)on2)cc1 the results were RE007 growth inh 1%, NS1 function inh -9%, StopGo reporter 44%[activator] and SARS PLpro yeast -3%.
`Cc1cccc(C(=O)N2CCc3cc(CNS(=O)(=O)c4ccc(F)c(Cl)c4)ccc32)c1` gave Cruzain Triton -0.6%, StopGo reporter -26%, Cruzain noTriton -6% and LASV entry inh 22%[46.1 µM].
`OC(COc1ccc2c(c1)OCO2)CN1CCc2ccccc2C1` (stereo unspecified) gave RE007 growth inh -5%, NS1 function inh inconclusive, Cruzain Triton 2.9%, Cruzain noTriton -8%, SARS PLpro yeast -13%, Marburg entry inh 4% and LASV entry inh 17%.
Screening O=C(Nc1ccc(-c2ccc3nncn3n2)cc1)C1CCCCC1 returned RE007 growth inh -3%, StopGo reporter 20%, SARS PLpro yeast 1%, Marburg entry inh 24%[46.1 µM] and LASV entry inh 13%[46.1 µM].
For O=C(/C=C/c1ccccc1)NC1CCS(=O)(=O)C1 (stereo unspecified) the results were NS1 function inh 12%, Cruzain Triton -1.4%, StopGo reporter -23%, Cruzain noTriton 10%, SARS PLpro yeast 19%, Marburg entry inh inconclusive and LASV entry inh 10%.
For COC(=O)N/N=C/c1c(C)cc(C)cc1C the results were RE007 growth inh -10%, NS1 function inh 3%, Cruzain Triton -0.7%, StopGo reporter 8%, Cruzain noTriton 16%, SARS PLpro yeast 4%, Marburg entry inh 11% and LASV entry inh 4%.
For O=C(O)c1nnn(-c2ccc(F)cc2F)c1-c1ccccc1 the results were RE007 growth inh 4%, NS1 function inh 4%, StopGo reporter -10%, SARS PLpro yeast -1%, Marburg entry inh inconclusive and LASV entry inh -10%.
`Cc1oc(CN2CCOCC2)cc1C(=O)O` gave RE007 growth inh 10%, StopGo reporter -13%, SARS PLpro yeast -1%, Marburg entry inh 0%[46.1 µM] and LASV entry inh 11%.
For O=c1[nH]cnc2c1cnn2Cc1ccccc1Cl the results were RE007 growth inh 8%, NS1 function inh 2%, StopGo reporter 0% and SARS PLpro yeast -1%.
Screening CC(=O)[C@@H]1[C@@H](C(=O)c2ccc(C)cc2)[C@]2(C(=O)Nc3ccccc32)[C@H]2C=Cc3cc(F)ccc3N12 returned RE007 growth inh -6%, NS1 function inh -1%, Cruzain Triton -7.7%, StopGo reporter -3%, Cruzain noTriton -9%, SARS PLpro yeast -2%, Marburg entry inh inconclusive and LASV entry inh inconclusive.
`O=C(O)C12CC3CC(C1)CC(n1cnc(Cl)n1)(C3)C2` gave RE007 growth inh -10%, NS1 function inh 10%, Cruzain Triton 6.0%, StopGo reporter -10%, Cruzain noTriton -5%, SARS PLpro yeast -9%, Marburg entry inh 15% and LASV entry inh 1%.

Fetched one by one from the entries so far:
For O=C(O)c1nnn(-c2ccc(F)cc2F)c1-c1ccccc1 the results were RE007 growth inh 4%, NS1 function inh 4%, StopGo reporter -10%, SARS PLpro yeast -1%, Marburg entry inh inconclusive and LASV entry inh -10%.
For O=C(/C=C/c1ccccc1)NC1CCS(=O)(=O)C1 (stereo unspecified) the results were NS1 function inh 12%, Cruzain Triton -1.4%, StopGo reporter -23%, Cruzain noTriton 10%, SARS PLpro yeast 19%, Marburg entry inh inconclusive and LASV entry inh 10%.

Continued:
Screening COc1cccc(CN2CCN(C(=O)c3ccc(-c4ccccc4)cc3)CC2)c1 returned RE007 growth inh 1%, NS1 function inh -41%, Cruzain Triton -4.7%, StopGo reporter inconclusive, Cruzain noTriton -1%, SARS PLpro yeast -5%, Marburg entry inh inconclusive and LASV entry inh inconclusive.
Screening Cc1ccc(N2CCCC2=O)cc1S(=O)(=O)N1CCOCC1 returned RE007 growth inh -9%, NS1 function inh -13%, StopGo reporter 3%, SARS PLpro yeast -3% and LASV entry inh 28%[46.1 µM].
`CC1(C)CC(N2CCN(c3ccccc3)CC2)=CC(=[N+]2CCCC2)C1` gave RE007 growth inh 5%, NS1 function inh -16%, Cruzain Triton -5.5%, Cruzain noTriton -13%, SARS PLpro yeast -1%, Marburg entry inh inconclusive and LASV entry inh inconclusive.
CS(=O)(=O)Cc1nc2ccccc2oc1=O was read as RE007 growth inh -21%, NS1 function inh -162%, Cruzain Triton -1.5%, StopGo reporter -1%, Cruzain noTriton -5%, SARS PLpro yeast -29%, Marburg entry inh -28%[46.1 µM] and LASV entry inh inconclusive.
For O=C(Nc1ccccc1C(=O)OCC(=O)c1c[nH]c2ccccc12)c1ccco1 the results were RE007 growth inh -1%, NS1 function inh 28%, Cruzain Triton -4.6%, StopGo reporter -7%, Cruzain noTriton -24%, SARS PLpro yeast 3%, Marburg entry inh inconclusive and LASV entry inh inconclusive.
For Cc1cc(C)nc(SCc2nnc(SCC(=O)N3CCCc4ccccc43)n2C)n1 the results were RE007 growth inh -8%, NS1 function inh -5%, Cruzain Triton 0.2%, Cruzain noTriton 2%, SARS PLpro yeast 1%, Marburg entry inh 9% and LASV entry inh -1%.
`COc1ccc(NC(=O)NC2COc3ccccc3C2)c(OC)c1` (stereo unspecified) gave Cruzain Triton -0.1%, StopGo reporter 1%, Cruzain noTriton -6% and LASV entry inh -3%[46.1 µM].
For Cc1cc(NC(=O)N(C)CCc2c(C)nn(C)c2C)ccc1Br the results were Cruzain Triton -1.2%, StopGo reporter 12%, Cruzain noTriton 1% and LASV entry inh -20%[46.1 µM].
Screening CSc1ccc(CN(C)CC(=O)NCCc2ccccc2)cc1 returned RE007 growth inh 25%, NS1 function inh 2%, StopGo reporter -21%, SARS PLpro yeast -3%, Marburg entry inh 6%[46.1 µM] and LASV entry inh -3%.
For COC(=O)C1(C)NC(c2ccccc2OC)C2C(=O)N(c3ccccc3)C(=O)C21 (stereo unspecified) the results were RE007 growth inh 2%, NS1 function inh 8%, StopGo reporter -7% and SARS PLpro yeast -1%.
O=C(Nc1cc(S(=O)(=O)N2CCCCC2)ccc1N1CCOCC1)c1ccc(C(F)(F)F)cc1 was read as RE007 growth inh -1%, StopGo reporter -1%, SARS PLpro yeast 4%, Marburg entry inh -11% and LASV entry inh inconclusive.
CC(=O)Oc1ccc(C(=O)[C@H]2[C@H]3C(=O)N(c4ccc5ccccc5c4)C(=O)[C@H]3[C@@H]3C=CC=NN32)cc1 was read as RE007 growth inh 7%, NS1 function inh 21%, Cruzain Triton -1.6%, StopGo reporter -2%, Cruzain noTriton inconclusive, SARS PLpro yeast 3.2µM*, Marburg entry inh 1% and LASV entry inh 17%.
`Cc1ccc(C2C(C#N)=C(N)Oc3n[nH]c(-c4cccs4)c32)cc1` (stereo unspecified) gave RE007 growth inh -11%, NS1 function inh 14%, Cruzain Triton -1.9%, StopGo reporter -18%, Cruzain noTriton 32µM*, SARS PLpro yeast 29%, Marburg entry inh 7% and LASV entry inh 24%.
For COc1ccc2oc(=O)cc(CN3CCOCC3)c2c1 the results were RE007 growth inh 6%, NS1 function inh -15%, StopGo reporter 6% and SARS PLpro yeast 3%.
CCCCn1c(C)csc1=Nc1cccnc1 was read as RE007 growth inh -20%, NS1 function inh 4%, Cruzain Triton -5.6%, StopGo reporter -23%, Cruzain noTriton 4%, SARS PLpro yeast 3%, Marburg entry inh -14% and LASV entry inh 2%.
Screening Cc1ccc(-c2cn3c(n2)sc2cc(C(=O)NCc4cccs4)ccc23)cc1 returned Cruzain Triton -3.5%, StopGo reporter 13%, Cruzain noTriton -3% and LASV entry inh -11%[46.1 µM].
Screening O=C(CCC1CCN(C(=O)c2cc(C(F)(F)F)ccc2Cl)CC1)NC1CC1 returned RE007 growth inh 0%, NS1 function inh 1%, StopGo reporter -14% and SARS PLpro yeast 4%.
For O=C(COc1ccc(S(=O)(=O)N2CCOCC2)cc1)Nc1ccccc1Cl the results were RE007 growth inh 4%, NS1 function inh -1%, StopGo reporter -12%, SARS PLpro yeast 9%, Marburg entry inh 10% and LASV entry inh inconclusive.
Screening COC(=O)C1=C(C)NC(C)=C(C(=O)OC)C1C(=O)OC(C)C(=O)c1ccccc1 (stereo unspecified) returned RE007 growth inh 2%&1%, StopGo reporter -21%&-16%, SARS PLpro yeast 1%&4%, Marburg entry inh -9%&-9%[46.1 µM] and LASV entry inh -26%[46.1 µM].
`Cc1cc(C(=O)NCCC2=CCCCC2)no1` gave RE007 growth inh 1%, NS1 function inh -15%, Cruzain Triton 2.3%, StopGo reporter 36%[activator], Cruzain noTriton 5%, SARS PLpro yeast 5%, Marburg entry inh inconclusive and LASV entry inh inconclusive.
For CCOc1cc(NC(=O)C2CC2)c(OCC)cc1NC(=O)c1cc(OC)c(OC)c(OC)c1 the results were RE007 growth inh -21%, NS1 function inh -1%, StopGo reporter -4%, SARS PLpro yeast -1%, Marburg entry inh 11%[46.1 µM] and LASV entry inh 2%[46.1 µM].
`CCOC(=O)Cn1cnc2sc(C(=O)OC)c(C)c2c1=O` gave RE007 growth inh -7%, NS1 function inh 2%, StopGo reporter 4%, SARS PLpro yeast 0%, Marburg entry inh 8% and LASV entry inh 6%.
